# Assay outcomes as filed in PubChem BioAssay.
# Cruzain inh Det = blocks cruzain activity in presence of Triton detergent; purified cruzain, Z-FR-AMC fluorescence, 0.01% Triton; Potency, µM, without a hit: max response, negative = inhibition, usual class: inhibitors; 0.43% of 200,000 active; AID 1478;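 note: plate controls were neutral wells for no effect and buffer without enzyme for full effect; nearly all actives have a fitted effect of over 40% in size; top concentration of the series not given in the record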
# Target sequence (P25779 123-467 limits assumed): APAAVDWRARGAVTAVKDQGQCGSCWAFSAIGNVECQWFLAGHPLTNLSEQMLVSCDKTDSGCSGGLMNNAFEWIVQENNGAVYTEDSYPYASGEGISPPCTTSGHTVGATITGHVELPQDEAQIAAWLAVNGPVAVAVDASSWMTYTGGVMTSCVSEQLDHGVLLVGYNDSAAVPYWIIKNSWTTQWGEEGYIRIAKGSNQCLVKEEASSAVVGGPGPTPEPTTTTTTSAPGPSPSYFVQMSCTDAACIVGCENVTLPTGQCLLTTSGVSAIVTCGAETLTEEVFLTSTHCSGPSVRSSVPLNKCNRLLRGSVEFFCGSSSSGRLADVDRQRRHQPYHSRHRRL
#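 Compounds were screened in titration against cruzain (1.5 nM) with 0.01% Triton X-100 to counter colloidal aggregation. Activity was the AMC fluorescence increase over 60 s after adding 2 uM Z-FR-AMC at pH 5.5.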
# StopGo reporter = FMDV 2A StopGo reporter, luciferase signal. human cells with a luciferase reporter of 2A StopGo recoding; control for the full effect not named in the record. Potency, µM (top dose mostly 57.9 µM), for the others: at the top dose signal change, negative = less light. 1.2% of 410,000 active; active = well fitted falling curve with a large enough effect; inconclusive = small, poorly fitted or top-dose-only effect; inactive = no such curve, though single readings can be large or run the other way; tested in HEK293T cells; note: % is set by controls: 0 for no effect and ±100 for the full control effect; nearly all actives have a fitted effect of over 45% in size; luciferase light after 4 h
# Lassa entry inh = inhibitors of Lassa virus binding or cell entry; AID 540256; 1.2% of 300,000 active; Potency, µM (top dose mostly 37.9 µM), for the others: at the top dose activity change, negative = inhibition, most hits filed as inhibitors; Lassa virus pseudotype entry inhibition, cell reporter; control for the full effect not named in the record; active means well fitted inhibition curve with a large enough effect; inconclusive means small, poorly fitted or top-dose-only effect, or effect the other way; inactive means flat fitted curve, though single readings scatter; tested in HEK293 cells; note: % is set by controls: 0 for no effect and ±100 for the full control effect; nearly all actives have a fitted effect of over 50% in size; luciferase read-out
# Cruzain noTriton = blocks cruzain activity in detergent-free assay; P25779; purified cruzain, Z-FR-AMC fluorescence, no detergent; Potency, µM, for the others: max response, negative = inhibition, actives largely listed as inhibitors; 2.3% of 200,000 active;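 note: plate controls were enzyme without inhibitor for no effect and buffer without enzyme for full effect; nearly all actives have a fitted effect of over 40% in size; top concentration of the series not given in the record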
#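 Purified cruzain at 1.5 nM, pre-incubated 15 min with compound at room temperature in 100 mM sodium acetate pH 5.5, 5 mM DTT, 0.00005% Triton X-100. Reaction started with 2 uM Z-FR-AMC; AMC fluorescence increase over 60 s gives rate.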
# NS1 function inh = blocks influenza NS1 protein function; S. cerevisiae slowed by influenza A NS1, growth recovery by OD600; Potency, µM (top dose mostly 46.1 µM), without a hit: at the top dose activity, positive = more growth; 0.4% of 270,000 active; AID 2326; active means well fitted rising curve with a large enough effect; inconclusive means small, poorly fitted or top-dose-only effect; inactive means no such curve, though single readings can be large or run the other way; note: nearly all actives have a fitted effect of over 50% in size
#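 Read-out: OD600 growth recovery of NS1-expressing budding yeast. Cells grown overnight at 30C in -URA glucose medium, washed, resuspended and diluted 1:100 in 2% galactose assay medium, pH 6.0. Same strain lacking NS1 served as positive control.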
# SARS PLpro yeast = blocks SARS-CoV papain-like protease in a yeast assay; S. cerevisiae expressing SARS-CoV PLpro, growth rescue; control for the full effect not named in the record; Potency, µM (highest dose often 32.9 µM), for inactives: top-dose activity, positive = growth rescue; 0.19% of 330,000 active; active means well fitted rising curve with a large enough effect; inconclusive means small, poorly fitted or top-dose-only effect; inactive means no such curve, though single readings can be large or run the other way; note: 0% is about no effect; nearly all actives have a fitted effect of over 55% in size; growth read by luminescence after 48 h
# MARV entry inh = blocks Marburg virus binding to or entry into cells; Marburg virus pseudotyped entry inhibition, cell reporter; control for the full effect not named in the record; about a third of the inactives were read at about 46 µM; Potency, µM (series often up to 37.8 µM), inactives show at the highest dose activity change, negative = inhibition, hits mostly inhibitors; 1.8% of 300,000 active; AID 540276; active = well fitted inhibition curve with a large enough effect; inconclusive = small, poorly fitted or top-dose-only effect, or effect the other way; inactive = flat fitted curve, though single readings scatter; tested in HEK293 cells; about a fifth of its hits are not listed in these tables; note: % is set by controls: 0 for no effect and ±100 for the full control effect; luciferase read-out
# RE007 growth inh = less growth of the S. pombe RE007 Vpr strain; S. pombe RE007 Vpr strain, BacTiter-Glo ATP luminescence, 24 h; control for the full effect not named in the record; Potency, µM (top dose mostly 92.2 µM), inactives show at the highest dose activity change, negative = less growth; 0.21% of 360,000 active; AID 651644; active = well fitted falling curve with a large enough effect; inconclusive = small, poorly fitted or top-dose-only effect; inactive = no such curve, though single readings can be large or run the other way;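 note: % is set by controls: 0 for no effect and ±100 for the full control effect; nearly all actives have a fitted effect of over 50% in size; the assay follows cell death caused by Vpr and the record does not say whether a fall means rescue or toxicity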
#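 Fission yeast RE007 carrying one integrated HIV-1 vpr copy, seeded at OD 0.01 in PMG+AL medium with 23 nL pinned compound. Grown 24 h at 30 degrees; viability read by BacTiter-Glo luminescence after 5 min.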
# An asterisk follows results filed as active; ? = inconclusive; . = no result given; & = joins results of further samples; [ ] = remark or other dose. Unless noted, calls come from the whole dose curve; as a rule, active = well fitted curve in the direction sought with a large enough effect; inconclusive = small, poorly fitted or top-dose-only effect, or another doubt; inactive = no such curve, though single readings can be large; an effect the other way counts as inactive or inconclusive. Potency is the fitted concentration of half-maximal effect. Compounds as they come; any-hit rate near 4.6%.
# Start of the data: the first 4 compounds, to show the layout:
SMILES,Cruzain inh Det,StopGo reporter,Lassa entry inh,Cruzain noTriton,NS1 function inh,SARS PLpro yeast,MARV entry inh,RE007 growth inh
CCCCn1nc2cc(C(=O)NCc3ccc(OC(F)(F)F)cc3)ccc2c1OC,-1.0%,-27%,.,6%,-3%,-3%,3%,-12%
O=S(=O)(NCCc1nc2ccccc2[nH]1)c1ccccc1,.,-10%,-16%,.,.,.,0%[46.1 µM],4%
CS(=O)(=O)N(CC(=O)NCCSc1ccccn1)c1ccc(F)cc1,.,0%,1%[46.1 µM],.,0%,-1%,-9%[46.1 µM],10%
COC(=O)Cc1c(C)c2ccc3c(c2oc1=O)CN(Cc1ccccc1Cl)CO3,-16%,?,13%[46.1 µM],-12%,.,.,-2%[46.1 µM],.

# The list itself, from the first entry:
SMILES,Cruzain inh Det,StopGo reporter,Lassa entry inh,Cruzain noTriton,NS1 function inh,SARS PLpro yeast,MARV entry inh,RE007 growth inh
CCCCn1nc2cc(C(=O)NCc3ccc(OC(F)(F)F)cc3)ccc2c1OC,-1.0%,-27%,.,6%,-3%,-3%,3%,-12%
O=S(=O)(NCCc1nc2ccccc2[nH]1)c1ccccc1,.,-10%,-16%,.,.,.,0%[46.1 µM],4%
CS(=O)(=O)N(CC(=O)NCCSc1ccccn1)c1ccc(F)cc1,.,0%,1%[46.1 µM],.,0%,-1%,-9%[46.1 µM],10%
COC(=O)Cc1c(C)c2ccc3c(c2oc1=O)CN(Cc1ccccc1Cl)CO3,-16%,?,13%[46.1 µM],-12%,.,.,-2%[46.1 µM],.
COc1ccc(CNC(=O)CSc2ncn[nH]2)cc1,2.1%,4%,2%,-17%,-4%,2%,?,22%
Cc1nn(Cc2ccccc2Cl)c(C)c1NC(=O)c1ccn(C)n1,-2.2%,-7%,2%,7%,-6%,10%,-14%,9%
Cc1cc(C(=O)NCc2ccccc2F)cs1,0.5%,43%[activator],1%,-11%,-4%,-14%,-7%,-13%
CCOc1ccc(-n2c(CC)nc3ccccc3c2=O)cc1,-0.7%,-22%,-2%,0%,-10%,4%,-2%,13%
O=C(O)COCC(=O)Nc1ccc(-n2cnnn2)cc1,.,-21%,-14%,.,.,2%,-1%,9%
O=C(CN1C(=O)c2ccccc2S1(=O)=O)NC1CCCCC1,.,34%[activator],12%,.,-10%,1%,0%[46.1 µM],17%
CN(C)c1ccc(CN2CCC(C(N)=O)CC2)cc1,.,-7%,-15%,.,3%,0%,5%,-4%
O=C(CNC(=O)c1ccc(Br)o1)Nc1ccncc1,.,5%,13%,.,.,-1%,-21%[46.1 µM],-5%
CCOc1ccc2nc(N=NC3=C(O)CC(C)(C)CC3=O)sc2c1,.,0%,.,.,3%,-2%,.,-19%
O=C1CCN(Cc2ccc([N+](=O)[O-])cc2)CCN1[C@H](CO)Cc1ccccc1,.,0%,.,.,-15%,1%,.,-22%
CCOc1ccc(-c2nc(C#N)c(N3CCN(C)CC3)o2)cc1,-16%,-2%,?,13%,-26%,0%,3%,-1%
CC(C)(C)c1ccc(C(=O)N2CCC(=O)N(C(COCc3ccccc3)Cc3ccccc3)CC2)cc1 (stereo not given),-1.2%,?,8.2µM*,14%,10%,-20%,?,-2%
O=C(O)c1ccccc1C(=O)c1ccc(N2CCOCC2)c([N+](=O)[O-])c1,.,-8%,15%,.,1%,0%,3%[46.1 µM],0%
O=C(c1cccc(Oc2ccc([N+](=O)[O-])cc2)c1)N1CCOCC1,.,-13%,.,.,4%,1%,.,2%
COc1ccc(-c2cc(C(=O)NCc3ccccc3)no2)cc1OC,-3.2%,38%[activator],15%,16%,11%,13%,1%,5%
COc1ccc2cc3c(N)nn(C(=O)c4cccc(F)c4)c3nc2c1,.,21%,.,.,?,1%,.,11%
CCCN1CCN(C(=O)CCn2c(=O)c3cccn3c3cccnc32)CC1,.,-7%,.,.,0%,-2%,.,5%
Cc1sc(NC(=O)c2cccs2)nc1-c1ccccc1,-7.6%,?,-3%,2%,-9%,-19%,?,?
CC(=O)Nc1ccc(-c2csc(NC(=O)CC(NC(C)=O)c3ccccc3)n2)cc1 (stereo not given),.,-4%,9%,.,13%,0%,-6%,-5%
O=C(NCC(=O)N(Cc1cccs1)C(C(=O)NC1CCCC1)c1ccncc1)c1ccco1 (stereo not given),-6.7%,-11%,23%,7%,-41%,-2%,5%&-2%,-10%
CCN(CC(=O)Nc1ccc(OC)cc1)C(=O)c1ccc2ccccc2c1,.,18%,-20%,.,.,-6%,-29%,-4%
CN=C(C)/C(C(=O)OC)=C(/O)c1c(F)cccc1F,.,-3%,.,.,0%,2%,.,-2%
CC(=O)Nc1ccc(NC(=O)CSc2nnc(-c3cccs3)n2C)cc1,.,5%,.,.,8%,2%,7%[46.1 µM],22%
CCC1CCCCN1c1ccc([N+](=O)[O-])cc1/C=N/NC(=O)Cn1c2ccccc2c(=O)c2ccccc21 (stereo not given),-1.0%,-18%,-4%,6.3µM*,14%,2%,0.89µM*,-21%
Cc1ccc(CNC(=O)CCCN2C(=O)CCn3nc(-c4cn(C)c5ccccc45)cc32)cc1,-1.5%,-11%,0%[46.1 µM],?,.,.,.,.
O=C(Cc1ccccc1)NNC(=O)c1ccc(NC(=O)c2ccccc2)cc1,.,-7%,-12%[46.1 µM],.,.,-1%,6%[46.1 µM],7%
CC(=O)c1ccc(NC(=S)N2CCN(S(=O)(=O)c3ccc(F)cc3)CC2)cc1,.,12%,-1%,.,-2%,-3%,16%,-1%
N#CCCN(C(=O)COC(=O)CCN=C1NS(=O)(=O)c2ccccc21)c1ccc(F)cc1,.,-15%,1%,.,.,0%,0%,-4%
CC1CC(=O)N(CC(=O)NC2CCCCC2)c2ccccc2S1 (stereo not given),.,8%,.,.,4%,3%,.,-1%
Cc1ccc(OCCCSc2n[nH]c(N)n2)cc1,.,24%,.,.,-3%,-1%,.,17%
C#CCOc1ccc(C2C(C(=O)OC)=C(C)NC3=C2C(=O)c2ccccc23)cc1OCC (stereo not given),-6.6%,-22%,-3%[46.1 µM],9%,.,.,-19%[46.1 µM],.
CCOc1ccc(NC(=O)CN2C(=O)C3(SCC(=O)N3c3ccc(F)cc3)c3ccccc32)cc1 (stereo not given),-7.5%,0%,-7%[46.1 µM],-3%,.,.,.,.
O=C(c1ccco1)N1CCN(C(=O)c2ccc(CS(=O)c3cccc(Cl)c3)o2)CC1 (stereo not given),.,-6%,.,.,2%,-1%,.,11%
CN(c1cccc(NC(=O)Cc2ccccc2)c1)S(C)(=O)=O,3.6%,62%[activator],8%,3%,-16%,1%,0%,-2%
CN(C)c1ccc(/C=C2\CC3C4CC=C5CC(O)CCC5(C)C4CCC3(C)C2=O)cc1 (stereo not given),-3.1%,-8%,3%,-17%,6%,-3%,7%,7%
O=C(O)CN1C(=O)/C(=C\c2cc(Br)ccc2OCc2ccccc2F)SC1=S,.,-15%,.,.,6%,-1%,.,2%
O=C(c1ccc(Cl)c(S(=O)(=O)N2CCCCCC2)c1)N1CCCC(C(F)(F)F)C1 (stereo not given),.,-25%,-11%,.,.,-2%,?,6%
N/C(=N\OC(=O)Nc1ccccc1)c1ncc(C(F)(F)F)cc1Cl,0.7%,51%[activator],10%,2%,-11%,19%,?,-29%
CN(C)c1[nH]c(=O)c(C#N)c2c1CCN2Cc1ccccc1,3.7%,-3%,-15%,-9%,0%,7%,-23%,3%
CN1CCCN(C(=O)COc2ccc(F)cc2Cl)CC1,.,-2%,-12%[46.1 µM],.,17%,6%,29%[46.1 µM],-4%
CCOc1ccccc1NC(=O)c1ccccc1-c1nc(-c2ccccc2)no1,-0.8%,0%,-20%,4%,-45%,5%,?,-6%

# Only StopGo reporter, for some of the entries so far:
molecule	StopGo reporter
CN(C)c1ccc(/C=C2\CC3C4CC=C5CC(O)CCC5(C)C4CCC3(C)C2=O)cc1 (stereo not given)	-8%
O=C(c1ccco1)N1CCN(C(=O)c2ccc(CS(=O)c3cccc(Cl)c3)o2)CC1 (stereo not given)	-6%

# (continued)
SMILES,Cruzain inh Det,StopGo reporter,Lassa entry inh,Cruzain noTriton,NS1 function inh,SARS PLpro yeast,MARV entry inh,RE007 growth inh
CC(=O)c1cccc(NC(=O)COC(=O)c2cccc(N3C(=O)c4ccccc4C3=O)c2)c1,-4.5%,-1%,-4%,?,16%,-6%,1%,-6%
COC(=O)c1ccc(COC(=O)c2ccc(SC)cc2OC)cc1,-8.1%,19%,0%,10%,-11%,19%,17%,-14%
Cc1cc(F)ccc1NS(=O)(=O)c1c(C)nc2scc(C)n2c1=O,-7.3%,23%&35%,-4%,-13%,6%,-2%,-4%&-3%[46.1 µM],-3%
Cc1cc(C)nc(SCc2nnc(SCC(=O)Nc3cc(C(F)(F)F)ccc3Cl)o2)n1,-5.3%,-4%,18%,?,-5%,-6%,1%&-1%,-12%
CCOC(=O)c1cc(-c2ccccc2)n(CCC(=O)NCCc2ccc(OC)c(OC)c2)c1C,-5.8%,-10%,-22%[46.1 µM],?,.,.,.,.
COc1ccc(Oc2cc(NC(=O)c3nn(C)cc3[N+](=O)[O-])cc([N+](=O)[O-])c2)cc1,-4.8%,?,?,-30%,1%,-1%,-51%,13%
O=[N+]([O-])c1ccc(N2CCSCC2)cc1O,.,19%,.,.,1%,0%,.,-11%
CC1Cc2ccccc2N1C(=O)c1ccc2c(c1)nnn2C (stereo not given),-12%,9%,2%,7%,2%,4%,1%,0%
O=C(N/N=C/c1c[nH]c2ccc(Br)cc12)C1CC1,.,0%,.,.,-5%,0%,.,-4%
Cc1nnc(SCC(=O)N2CCN(S(=O)(=O)c3ccc(Cl)cc3)CC2)[nH]c1=O,4.5%,-14%,-6%,-1%,0%,-2%,13%,-4%
O=C(O)CCn1cc(/C=C2\SC(=S)NC2=O)c(-c2ccccc2)n1,.,5%,10%[46.1 µM],.,.,0%,?,-5%
